Screening results (PubChem BioAssay)
hNpr1 antagonist: Natriuretic polypeptide receptor (hNpr1) antagonism - Primary qHTS. Atrial natriuretic peptide receptor 1 (Homo sapiens), P16066. HEK293 hNpr1 GloSensor cGMP, ANP-stimulated luminescence. Potency, µM (highest dose often 46.3 µM), inactives show at the top dose activity change, negative = inhibition, usual class: inhibitors. 1.6% of 76,000 active; active = well fitted inhibition curve with a large enough effect; inconclusive = small, poorly fitted or top-dose-only effect; inactive = no such curve, though single readings can be large or run the other way;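 further: nearly all actives have a fitted effect of over 60% in size; nearly all hits also lower the signal before the agonist is added; a reference antagonist and vehicle were the controls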
Target sequence (P16066 whole entry, looked up): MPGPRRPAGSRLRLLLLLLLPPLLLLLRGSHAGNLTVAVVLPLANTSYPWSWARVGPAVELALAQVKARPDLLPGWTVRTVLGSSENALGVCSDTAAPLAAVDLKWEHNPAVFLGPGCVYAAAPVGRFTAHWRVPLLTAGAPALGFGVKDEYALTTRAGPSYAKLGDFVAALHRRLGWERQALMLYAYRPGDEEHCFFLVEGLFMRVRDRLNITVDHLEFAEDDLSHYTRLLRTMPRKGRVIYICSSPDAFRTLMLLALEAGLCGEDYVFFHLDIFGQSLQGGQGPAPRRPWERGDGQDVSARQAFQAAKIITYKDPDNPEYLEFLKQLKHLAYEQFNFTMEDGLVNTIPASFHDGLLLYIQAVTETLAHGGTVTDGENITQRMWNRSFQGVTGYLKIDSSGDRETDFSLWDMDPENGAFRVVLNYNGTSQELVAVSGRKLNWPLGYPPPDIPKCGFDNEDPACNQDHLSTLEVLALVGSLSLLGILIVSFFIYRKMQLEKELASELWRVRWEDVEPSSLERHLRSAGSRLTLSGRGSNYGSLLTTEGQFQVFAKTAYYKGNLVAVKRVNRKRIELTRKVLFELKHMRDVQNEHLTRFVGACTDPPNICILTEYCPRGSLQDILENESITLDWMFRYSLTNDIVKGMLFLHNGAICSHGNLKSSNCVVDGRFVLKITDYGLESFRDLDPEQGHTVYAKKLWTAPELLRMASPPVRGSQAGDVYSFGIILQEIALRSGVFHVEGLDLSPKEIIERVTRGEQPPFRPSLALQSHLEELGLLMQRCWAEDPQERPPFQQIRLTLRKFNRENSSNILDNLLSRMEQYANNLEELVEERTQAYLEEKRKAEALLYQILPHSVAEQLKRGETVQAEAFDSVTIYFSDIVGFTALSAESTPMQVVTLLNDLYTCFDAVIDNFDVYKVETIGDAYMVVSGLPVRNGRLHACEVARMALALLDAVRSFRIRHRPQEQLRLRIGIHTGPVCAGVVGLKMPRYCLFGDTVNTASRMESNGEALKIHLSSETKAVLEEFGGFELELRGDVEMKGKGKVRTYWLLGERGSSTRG
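Compound pre-incubated 30 min at room temperature on GloSensor-loaded HEK293 cells stably carrying hNpr1 and the pGS-40F cGMP biosensor. Stimulation uses hNppA at 0.1 nM final; luminescence is taken at baseline and 20 min post-agonist.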
The depositor's hits bear a star; ? = inconclusive; [ ] = remark or other dose. On the % scale 0 is the no-effect control and ±100 the full control effect; potency means the concentration at half of the fitted maximal effect. A portion of the library, so the mix of outcomes need not match the whole.

Sample of the layout, 2 compounds:
item	hNpr1 antagonist	Structure
1	6%	C=CCn1c(-c2cccs2)cn2cc(C(=O)NC(CC)CO)nc2c1=O (configuration not stated)
2	-11%	Cc1nc2scc(CC(=O)NCC(C)C)n2c(=O)c1-c1cc(C)n(-c2ccc(C(C)C)cc2)n1

Main list, from the start:
item	hNpr1 antagonist	Structure
1	6%	C=CCn1c(-c2cccs2)cn2cc(C(=O)NC(CC)CO)nc2c1=O (configuration not stated)
2	-11%	Cc1nc2scc(CC(=O)NCC(C)C)n2c(=O)c1-c1cc(C)n(-c2ccc(C(C)C)cc2)n1
3	4%	O=C(c1ccn[nH]1)N1C[C@@H](COCC2CC2)[C@H](c2ccccn2)C1
4	6%	Cn1nccc1CCC(=O)N[C@@H]1CCOC[C@H]1Oc1ccccn1
5	4%	Cn1nccc1C(=O)N1CC(N(C2CCOCC2)S(C)(=O)=O)C1
6	5%[70.6 µM]	O=C(C[C@@H]1CCNC[C@@H]1Cc1cc(COc2ccccc2)on1)N1CCOCC1
7	1%	Cn1nccc1C(=O)N1CCC(c2noc(-c3ccncc3)n2)C1 (configuration not stated)
8	?	CC(C)c1noc(-c2cn(C3CCN(C(=O)c4cccc(Cl)c4)C3)nn2)n1 (configuration not stated)
9	0%	COc1ccc(N2CC(C(=O)N3CCN(Cc4ccccc4)CC3)NC2=O)cc1 (configuration not stated)
10	-15%[70.6 µM]	Cc1ccccc1NC(=O)c1cnc2c(c1)N(C(=O)Cc1cn(C)c3ccccc13)CCC2

Exported in markdown: 4 of the compounds above.
| No. | structure | hNpr1 antagonist |
| --- | --- | --- |
| 3 | O=C(c1ccn[nH]1)N1C[C@@H](COCC2CC2)[C@H](c2ccccn2)C1 | 4% |
| 4 | Cn1nccc1CCC(=O)N[C@@H]1CCOC[C@H]1Oc1ccccn1 | 6% |
| 5 | Cn1nccc1C(=O)N1CC(N(C2CCOCC2)S(C)(=O)=O)C1 | 4% |
| 6 | O=C(C[C@@H]1CCNC[C@@H]1Cc1cc(COc2ccccc2)on1)N1CCOCC1 | 5%[70.6 µM] |

More compounds follow.
item	hNpr1 antagonist	Structure
11	11%	CCN(CC)C(=O)[C@@H]1C[C@H](NC(=O)c2ccc[nH]2)CN1Cc1ccncc1
12	13µM*	O=C(c1csc(N2CCN(c3ccccc3)CC2)n1)N1CCN(c2ccccn2)CC1
13	4%	OC1(CNCCc2nc(-c3cccnc3)n[nH]2)CNCCOC1 (configuration not stated)
14	1%[70.6 µM]	CN(CCc1ccccn1)[C@H]1[C@@H]2OC[C@@H](O2)[C@@H](NCc2ccc3c(c2)OCO3)[C@@H]1O
15	1%	Cc1ccc(C(=O)N2CCCC(N)CC2)cc1N1CCNC1=O (configuration not stated)
16	-2%	COc1ccc(NC(=O)N2CCC(Oc3ncccc3C(=O)N3CCOCC3)C2)cc1F (configuration not stated)
17	2%	CC(C)NC(=O)N1CCC(Oc2ccccc2)C1 (configuration not stated)
18	-1%[70.6 µM]	CCN(CC)C(=O)CC[C@@H]1CNC(=O)[C@@H]2C[C@H](NC(=O)Nc3ccccc3)CN12
19	0%[70.6 µM]	CCN1C(=O)COC[C@@H]1[C@H](O)c1ccc(NC(=O)COC)cc1
20	0%	CC(C)(C)n1nnnc1C1CC2(CCOCC2)C(=O)N1Cc1cc(F)ccc1F (configuration not stated)
21	0%	O=c1n(Cc2ccc(F)cc2Cl)nc2n1CCCCC2
22	3%	O=C1CCN(C(=O)C2CCN(C(=O)C3CCC3)CC2)CCCCCCN1
23	0%[70.6 µM]	COC(=O)C(=O)N1CC[C@@H]2[C@H]1C(=O)N(C(C)C)C(=O)N2Cc1cccc(F)c1
24	-15%	COc1cccc(OCCN(C)Cc2cn(-c3ccccc3)nn2)c1
25	1%	COc1ccc(-c2nc3c(c(=O)[nH]2)CCN(C(=O)Cc2c[nH]c4ccccc24)C3)cc1
26	?	CCCn1ccnc1CN1CCCn2nc(-c3nc4ccccc4n3C)cc2C1
27	-25%	CCc1noc(-c2cn(C3CCN(C(=O)c4cccc(Cl)c4)C3)nn2)n1 (configuration not stated)
28	-5%	O=C(NC1CCCc2c1[nH]c1ccccc21)c1ccco1 (configuration not stated)
29	0%	CC(C)N1CCN(C2CCN(c3ccc4c(c3)OCO4)CC2)CC1CCO (configuration not stated)
30	-3%	O=C(Cc1ccc(F)cc1)NC1CCN(c2cc(C(F)(F)F)ncn2)CC1
31	8%	COc1ccccc1C(=O)N1CCC2(CC1)CN(c1ncccn1)CC2CO (configuration not stated)
32	-5%	CCc1ccc(C(=O)N2CCC(c3n[nH]c(=O)n3Cc3ccc(C)cc3)CC2)cc1
33	2%	CC(C)c1ccc(S(=O)(=O)N2C[C@@H](F)C[C@H]2C(=O)N2CCOCC2)cc1
34	4%[70.6 µM]	CCC(CC)C(=O)N1C[C@@H]2OCC(=O)N(CC3CC3)[C@@H]2C1
35	-2%	O=C(NCC1CN(C(=O)Cc2ccc3c(c2)OCO3)CC12CN(c1ccccc1)C2)c1ccccc1 (configuration not stated)
36	0%	COCCCNC(=O)c1ccc(N2CC3CC(C2)[C@H]2CCCC(=O)N2C3)nc1 (some centres not stated)
37	2%	O=C(CC1COCCN1)N1CCN(C/C=C/c2ccccc2)CC1 (configuration not stated)
38	0%	CCCS(=O)(=O)N1CC(c2noc(C3CCCN3CC3CC3)n2)C1 (configuration not stated)
39	-2%	O=C(NCc1ccncc1)C1CN(Cc2cccnc2)CC12CCOCC2 (configuration not stated)
40	-10%	Cc1cn2nc(C(=O)NCc3ccc(C(F)(F)F)cc3)cc2c(N2CCCC2)n1
41	9%[70.6 µM]	Cc1cc(C(=O)N[C@@H]2CCC[C@@H](C(=O)NC3CC3)CC(=O)N(C)C2)nn1C
42	1%[70.6 µM]	COC(=O)N1CCCN(c2nc3ncccc3o2)CC1
43	-2%	CC(C)CCNC(=O)c1cccnc1N1CC2CC(C1)[C@H]1CCCC(=O)N1C2 (some centres not stated)
44	4%	Cc1ccc(CNC(=O)NCCc2ncc(C)n2CC2CC2)cc1
45	5%	CN(C)[C@H]1CCCCN(C(=O)c2cn(CCN3CCNCC3)nn2)C1
46	0%	COc1ccc(C(=O)N2CCN(c3nnc4cccc(C)n34)CC2)cc1F
47	-7%	COc1ccc(NC(=O)O[C@@H]2CO[C@H]3[C@@H]2OC[C@@H]3NS(=O)(=O)c2ccccc2C#N)cc1
48	-3%	Cc1ccc(C(=O)N2CCC(c3n[nH]c(=O)n3Cc3ccc(F)cc3)CC2)cc1C
49	-12%[70.6 µM]	O=C(COc1ccccc1)N1CC(CNc2cccnc2)C2(C1)CN(c1ccccc1)C2 (configuration not stated)
50	-17%	CCCS(=O)(=O)N1CCCC(C(=O)NCc2ccccc2)CCNC(=O)CC1 (configuration not stated)
51	-11%	CC1(C(=O)NCc2ccco2)CN(Cc2ccccc2)Cc2ccc(N3CCOCC3)nc21 (configuration not stated)
52	-1%	COc1ccc(CNC(=O)Cn2c(C)cc3nc4n(c(=O)c32)CCCC4)cc1OC
53	-1%	COc1ccc(OC)c(CNC(=O)C2Cn3cccc3C(=O)N2C)c1 (configuration not stated)
54	-7%[70.6 µM]	CC(=O)Nc1ccc(CN2C[C@H](O)C[C@H]2c2nc(-c3cccc([N+](=O)[O-])c3)no2)cc1
55	6%[70.6 µM]	COC(=O)CN1C(=O)[C@@H]2C[C@@H](O)CN2C2(CN(Cc3cccs3)C2)C1=O
56	2%	CC(C)(C)NC(=O)N1C[C@@H](Oc2cccnc2)C[C@H]1C(=O)N1CCOCC1
57	-9%[70.6 µM]	COCC(=O)NC[C@@H]1C=C(C)[C@H](CC(=O)N2CCN(C(C)=O)CC2)C[C@H]1C(C)C
58	-2%[70.6 µM]	Cc1cc2cc(-c3c(C)noc3C)nc(-c3ccc(CO)cc3)c2o1
59	2%[70.6 µM]	COc1ccccc1-c1nnc([C@H]2CCN(C3CCOCC3)C2)o1
60	-28%[70.6 µM]	COc1ccc(S(=O)(=O)NC[C@H]2Cn3c(-c4ccc(F)cc4)cnc3CO2)cc1

(more compounds)
item	hNpr1 antagonist	Structure
61	0%	c1cn(C2CCSC2)c(-c2cc3n(n2)CCNC3)n1 (configuration not stated)
62	3%[70.6 µM]	COCC(=O)N1CCNC[C@H]1C(=O)N[C@@H](Cc1ccc(OC)cc1)C(=O)OC
63	-3%[70.6 µM]	COC(=O)[C@@H]1Cc2ncn(Cc3ccc(Cl)cc3)c2CN1C(=O)c1ccco1
64	0%	O=C1CC(c2ccccc2)N(C(=O)CNC(=O)c2cccs2)CCCCCN1 (configuration not stated)
65	0%	Cc1cnc(C(=O)N2C[C@@H](Oc3ccccc3)C[C@H]2C(=O)N2CCCC2)cn1
66	3%	CCN(C1CCOCC1)C1CN(C(=O)c2ccccn2)C1
67	0%[70.6 µM]	COCCNC(=O)C(C)[C@@H]1CCc2c(C)cc(OCCOC)c(C)c2[C@@H]1O (some centres not stated)
68	-5%[70.6 µM]	O=C1Cc2c(-c3cccc4ccccc34)n[nH]c2CN1Cc1ccccn1
69	0%	CCc1noc(-c2cn(C3CCN(C(=O)c4ccc(OC)c(F)c4)C3)nn2)n1 (configuration not stated)
70	3%	COc1ccc(C2(C(=O)NC3CCc4nnc(C)n4CC3)CC2)cc1 (configuration not stated)

As a short view, some entries already given:
item	hNpr1 antagonist	Structure
64	0%	O=C1CC(c2ccccc2)N(C(=O)CNC(=O)c2cccs2)CCCCCN1 (configuration not stated)
65	0%	Cc1cnc(C(=O)N2C[C@@H](Oc3ccccc3)C[C@H]2C(=O)N2CCCC2)cn1
66	3%	CCN(C1CCOCC1)C1CN(C(=O)c2ccccn2)C1
67	0%[70.6 µM]	COCCNC(=O)C(C)[C@@H]1CCc2c(C)cc(OCCOC)c(C)c2[C@@H]1O (some centres not stated)
68	-5%[70.6 µM]	O=C1Cc2c(-c3cccc4ccccc34)n[nH]c2CN1Cc1ccccn1
69	0%	CCc1noc(-c2cn(C3CCN(C(=O)c4ccc(OC)c(F)c4)C3)nn2)n1 (configuration not stated)
70	3%	COc1ccc(C2(C(=O)NC3CCc4nnc(C)n4CC3)CC2)cc1 (configuration not stated)

Additional results:
item	hNpr1 antagonist	Structure
71	-3%	O=C1NCC(=O)N2CCN(C(=O)c3cnnn3-c3ccccc3)CC12 (configuration not stated)
72	0%	CC(=O)c1cccc(NC(=O)CN2C(=O)NC3(CCCCC3)C2=O)c1
73	-12%	Cc1ccc2nc(C3CCN(Cc4cccc(-c5cccnc5)c4)CC3)[nH]c(=O)c2c1
74	-17%	CCOc1ccc(CC(=O)N2CCCN(c3cc(-c4ccc(OC)cc4)[nH]n3)CC2)cc1OCC
75	0%	CCOc1cccc(CN2CCC3(CC2)CC(O)CCO3)c1 (configuration not stated)
76	3%[70.6 µM]	CN1CCC2(C1)CN(Cc1ccccc1)c1ccc(C(=O)Nc3ccn(C)n3)cc12 (configuration not stated)
77	-20%	Cc1cccc(C(=O)N2CCCC(n3cc(-c4nc(C)no4)nn3)C2)c1 (configuration not stated)
78	3%[70.6 µM]	Cc1cc(C(=O)N[C@@H]2CCC[C@@H](C(=O)N(C)Cc3cccnc3)CC(=O)N(C)C2)no1
79	-2%[70.6 µM]	Fc1ccc2nc(CO[C@H]3CN(C4CCC4)C[C@H]3F)[nH]c2c1
80	-1%	O=C(c1coc(COc2ccc(F)cc2)n1)N1CCC(c2ccc(F)cc2)C1 (configuration not stated)
81	0%	COCC(=O)N[C@@H]1CN(Cc2ccccc2C)C[C@H]1CO
82	13%	COc1ccc2[nH]c3c(c2c1)CCN(C)C31CCN(C(=O)Cc2ccncc2)CC1
83	1%	COc1cccc(CN2CCc3nc(N(C)Cc4cccnc4)[nH]c(=O)c3CC2)c1
84	-5%	CCc1cccc(NC(=O)Cn2c(-c3cnccn3)nc(C)c(C)c2=O)c1
85	0%	c1coc(CN2CCC(NC3CCCN(c4nc5ccccc5s4)C3)CC2)c1 (configuration not stated)
86	3%	COc1cccc(OCC(=O)c2ccc3c(c2)N(CCCC(=O)N2CCOCC2)C(=O)CO3)c1
87	0%[70.6 µM]	O=C1C[C@@H]2CCN(C(=O)C3CC3)C[C@@H]2CCN1Cc1ccc2c(c1)OCO2
88	1%	CCNC(=O)N1CC(c2noc(COc3ccc(OC)cc3)n2)C1
89	?	OC1CCN(c2cc(N3CCOC(c4ccc(F)cc4)C3)ncn2)CC1 (configuration not stated)
90	2%	O=C(c1ccoc1)N1CCCN(c2nnc3ccc(Cl)cn23)CC1
91	3%[70.6 µM]	COc1ccc(-c2noc(C(=O)O)c2[C@@H](C)NC(=O)Cc2ccccc2)cc1
92	5%	Cc1noc(C)c1[S+](=O)([O-])N1CCC(N2Cc3cccn3C2=O)CC1
93	-2%	CCCCNC(=O)C1CC(=O)N(c2n[nH]c3cccc(F)c23)C1 (configuration not stated)
94	1%[70.6 µM]	CN1C(=O)[C@@H]2C[C@@H](O)CN2C2(CN(CC3CCCCC3)C2)C1=O
95	7%	COCCn1c(=O)n([C@H]2CCCN(C(=O)Cc3cccc(F)c3)C2)c2ncccc21
96	-5%[70.6 µM]	CCN1C(=O)COC[C@@H]1[C@H](O)c1ccc(NC(=O)CCc2ccccc2)cc1
97	-2%[70.6 µM]	COc1ncccc1-c1cc(-c2cn[nH]c2)c2cncn2c1
98	7%	CNC(=O)N1CCC(C2CCN(C(=O)Cc3ccccc3C)C2)CC1 (configuration not stated)
99	2%[70.6 µM]	CNc1nc2c(s1)C[C@]1(C)CCC([C@H](C)C(=O)N3CCSCC3)[C@H](O)[C@H]1[C@@H]2C (some centres not stated)
100	2%	COc1ccc(OC2CCN(C(C)=O)CC2)c(C(=O)N(C)CC2CCCCO2)c1 (configuration not stated)
101	-25%	COc1ccc(CC(=O)N2CCC(Cc3nc(C(C)C)no3)CC2)cc1Cl
102	1%	CCOc1ccc(CC(=O)N2CCC[C@H]2c2nc(-c3ccc(OC)c(OC)c3)no2)cc1OCC
103	0%[70.6 µM]	COc1ccccc1Nc1ncc2c(n1)CN(C(=O)C1CCC(OC)CC1)CCN2 (configuration not stated)
104	1%	Cc1cc(CN2CCc3nn(C)c(=O)n3CC2)n(C)n1
